VDR inh – inhibitors of human vitamin D receptor. 400,000 compounds, 0.93% hits. VDR-SRC2-3 peptide fluorescence polarization, 2 h. Potency, µM, inactives show max response, negative = inhibition, usual class: inhibitors. P11473. AID 504847; active means well fitted inhibition curve with a large enough effect; inconclusive means small, poorly fitted or top-dose-only effect, or another doubt; inactive means no such curve, though single readings can be large or run the other way; further: series mostly up to about 120 µM
Target sequence (P11473 whole entry, looked up): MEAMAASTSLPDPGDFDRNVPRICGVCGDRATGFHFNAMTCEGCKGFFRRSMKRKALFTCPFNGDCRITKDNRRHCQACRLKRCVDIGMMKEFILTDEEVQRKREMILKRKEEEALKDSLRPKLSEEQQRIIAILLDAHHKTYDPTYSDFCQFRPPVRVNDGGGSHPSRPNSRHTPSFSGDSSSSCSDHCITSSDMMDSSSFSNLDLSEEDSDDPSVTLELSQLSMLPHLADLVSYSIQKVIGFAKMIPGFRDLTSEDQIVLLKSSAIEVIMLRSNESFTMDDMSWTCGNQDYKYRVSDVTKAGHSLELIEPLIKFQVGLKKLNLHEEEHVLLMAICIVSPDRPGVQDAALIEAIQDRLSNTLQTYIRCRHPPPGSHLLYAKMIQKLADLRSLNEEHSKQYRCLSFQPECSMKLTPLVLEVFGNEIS
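Fluorescence polarization assay measuring small-molecule disruption of VDR binding to the coregulator peptide SRC2-3. Compounds were pin-transferred (23 nl) into the reagent mix and incubated 2 h at room temperature before reading.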
Starred values were filed as active, the others as inactive; ? = inconclusive; & = joins results of further samples; [ ] = dose if it differs, or a comment. On the % scale 0 is the no-effect control and ±100 the full control effect; potency means the concentration at half of the fitted maximal effect. Some of the compounds tested; count on the stated rates, not on these rows.

nr | VDR inh | mol
1 | -6% | Cc1nc(-c2ccccn2)sc1C(=O)Nc1ccc(F)cc1F
2 | 6% | O=C(Nc1nnc(SCc2cccnc2)s1)C1CC(=O)N(c2ccccc2)C1 (configuration not stated)
3 | 2% | CCCCCC(=O)Nc1ccc(N2CCN(C(=O)CCC)CC2)cc1
4 | ? | COc1ccccc1-c1nc(N(C)C)c2ccccc2n1
5 | -7% | Cc1nn(C(C)C(=O)Nc2ccccc2Cl)c(=O)c2nn(-c3ccccc3)c(C)c12 (configuration not stated)
6 | -6% | Cc1ccc(C)c(OCc2cc(C(=O)NC3CCOC(C)(C)C3)no2)c1 (configuration not stated)
7 | 2% | CC(CNC(=O)Cn1ccc2cc(S(=O)(=O)N3CCCCCC3)ccc21)c1ccccc1 (configuration not stated)
8 | 4% | CCOC(=O)c1[nH]c(COC(=O)c2ccccc2NC(=O)c2ccco2)c(C(=O)OCC)c1C
9 | -3% | Cc1ccc(Cc2nnc3n(-c4cccc(C)c4)nc(C(=O)c4ccccc4)n3c2=O)cc1
10 | 5% | N#Cc1ccccc1S(=O)(=O)N1CCN(C(=O)CN2CCCC2c2cccs2)CC1 (configuration not stated)
11 | 8% | C/C(=N\Nc1cccc([N+](=O)[O-])c1)c1cc2ccccc2o1
12 | 10% | COC(=O)c1c(SC)nc2ccccc2c1OCc1ccc(C)cc1
13 | 11% | COC(CNC(=O)c1cn(C)c2ccc(S(=O)(=O)N(C)C3CCCCC3)cc2c1=O)OC
14 | -7% | CC(N)(COP(=O)(O)O)C(=O)O (configuration not stated)
15 | 8% | CNC(=O)c1ccc(C)c(NC(=O)C2=C(C)OCCS2)c1
16 | 6% | Cc1cccc(NC(=O)CSc2nc3ccc(NC(=O)COc4ccccc4F)cc3s2)c1
17 | -10% | CN(C)S(=O)(=O)c1cccc(NC(=O)c2cc3c(=O)n4ccccc4nc3s2)c1
18 | 5% | CCC(=O)Nc1nonc1-c1nc2ccccc2n1CCC(C)C
19 | 27% | C=CCNc1ncnc2c1ncn2C1OC(CO)C(O)C1O (configuration not stated)
20 | ? | Nc1ccc(C(=O)Nc2cccc(NC(=O)c3ccc(N)cc3)c2)cc1
21 | -15% | NNC(=O)c1ccc2ccccc2n1
22 | -7% | COc1ccc(S(=O)(=O)Nc2ccc3c(c2)CC(=O)N([C@@H](C)CO)C[C@H](C)[C@@H](CN(C)S(=O)(=O)c2ccc(F)cc2)O3)cc1
23 | 19% | COc1ccc(CCNC(=O)C(=O)c2c[nH]c3ccccc23)cc1OC
24 | 4% | CC(C)[C@H](NC(=O)OCc1ccccc1)C(=O)OCC(=O)Nc1ccc(N2CCOCC2)cc1
25 | -9% | CC(=O)NC(c1ccco1)c1cc(F)c2cccnc2c1O (configuration not stated)
26 | -8% | Cc1ccc2c(=O)c(C(=O)NCc3cccs3)c[nH]c2c1
27 | -7%&15% | Cc1cccc(N(C)c2ccc3cc(S(=O)(=O)N4CCCC4)ccc3n2)c1
28 | 45µM* | COc1cc(OC)c(C2CC(=O)N3CN(c4ccc(C)cc4)CSC3=C2C#N)cc1OC (configuration not stated)
29 | -12% | CCOC(=O)c1cccc(NC(=O)Nc2ccc(OCC)cc2)c1
30 | 2% | O=C(NCc1ccc(F)cc1)c1cc(S(=O)(=O)N2CCCCC2)ccc1Cl
31 | 0% | COc1ccccc1-c1nnc(SC2CCc3ccccc3NC2=O)s1 (configuration not stated)
32 | 6% | CCCCN1C(=O)C(=O)N(CC(=O)Nc2sc(CC)cc2C(=O)OCC)C1=O
33 | 8% | CCc1ccccc1NC(=O)CN1CCN(C(=O)c2cccc(-n3cnnn3)c2)CC1
34 | 3% | Cc1ccc(NC(=O)CN2Cc3ccccc3C2=O)c(C)c1
35 | 10%&1% | CCc1ccc(NC(=O)CN(c2cc(C)cc(C)c2)S(=O)(=O)c2c(C)[nH]c(=O)[nH]c2=O)cc1
36 | 12% | c1ccc(-n2ncc3c2ncn2nc(CSc4nc5ccccc5s4)nc32)cc1
37 | 7% | CCN(CC(=O)NC1CCS(=O)(=O)C1)c1ccc(S(=O)(=O)N(CC)CC)cc1[N+](=O)[O-] (configuration not stated)
38 | 6% | O=C(NCc1cccnc1)c1ccc(COc2ccccc2Br)cc1
39 | 5% | OCc1cc2c(cn1)[nH]c1ccccc12
40 | ? | CN1CCN(NS(=O)(=O)c2ccc(Cl)s2)CC1
41 | -12% | CSc1ccc(/C=C/c2nc3ccccc3n2S(=O)(=O)c2ccc(Br)cc2)cc1
42 | -9% | C=CCOC(=O)Cn1cnc2c(sc3nc(C)cc(C)c32)c1=O
43 | -2% | N#CCSc1ccccc1NC(=O)COC(=O)CCNC(=O)c1ccc([N+](=O)[O-])cc1
44 | 7% | O=C1CC(C(=O)Nc2ccc(O)c(C(=O)O)c2)C(c2ccccc2)O1 (configuration not stated)
45 | -14% | CCC(OC(=O)c1nsc(Cl)c1Cl)C(=O)NC(C)(C)C (configuration not stated)
46 | -7% | Cn1c(=O)c2sccc2n2c(CCCC(=O)NCc3ccc(F)cc3)nnc12
47 | -1% | Cc1c(CN2CCCC(C)C2)c(O)n(CCO)c(=O)c1C#N (configuration not stated)
48 | -3% | O=C(Nn1c(O)c(C=C2N=c3ccccc3=N2)sc1=S)c1cccc(Cl)c1
49 | -4% | CC(C)(C)SCCNS(=O)(=O)c1ccc(F)cc1
50 | 8% | CCCC(=O)Nc1ccc(C(=O)NCc2ccccc2Cl)cc1
51 | -19% | CS(=O)(=O)c1cccc(C(=O)Nc2ccccc2Cc2ccccc2)c1
52 | 16% | CCOC(=O)Cc1csc(NC(=S)NC(=O)c2ccc(Cl)cc2)n1
53 | 4% | Cc1cccn2c(=O)cc(CSc3nnc(NC(=O)COc4ccc(F)cc4)s3)nc12
54 | -11% | COC(=O)c1nc(-c2ccccc2)oc1N(C)C
55 | 7% | CCN1CCN(c2ncc3c(n2)CCN(Cc2ccc(C)s2)C3)CC1
56 | -14% | Cc1ccc(OCC(=O)Nc2ccccc2Sc2ccc(Cl)cc2)c([N+](=O)[O-])n1
57 | -11% | COc1cccc(C(=O)NCC(=O)N/N=C/c2cccc(OC(=O)c3ccc([N+](=O)[O-])cc3)c2)c1
58 | -10% | CCN(c1ccccc1)S(=O)(=O)c1ccc(F)cc1
59 | -3% | CCC(=O)c1cc2c(C)cc(=O)oc2c(C)c1OC(=O)C(C)C
60 | -14% | CN(C)c1ccc(CNC(=O)CCc2ccc(S(=O)(=O)N3CCCCCC3)cc2)cc1

Entries above with bromine:
nr | VDR inh | mol
38 | 6% | O=C(NCc1cccnc1)c1ccc(COc2ccccc2Br)cc1
41 | -12% | CSc1ccc(/C=C/c2nc3ccccc3n2S(=O)(=O)c2ccc(Br)cc2)cc1

Structures above that contain a nitro group on carbon, in the order listed:
nr | VDR inh | mol
11 | 8% | C/C(=N\Nc1cccc([N+](=O)[O-])c1)c1cc2ccccc2o1
37 | 7% | CCN(CC(=O)NC1CCS(=O)(=O)C1)c1ccc(S(=O)(=O)N(CC)CC)cc1[N+](=O)[O-] (configuration not stated)
43 | -2% | N#CCSc1ccccc1NC(=O)COC(=O)CCNC(=O)c1ccc([N+](=O)[O-])cc1
56 | -14% | Cc1ccc(OCC(=O)Nc2ccccc2Sc2ccc(Cl)cc2)c([N+](=O)[O-])n1
57 | -11% | COc1cccc(C(=O)NCC(=O)N/N=C/c2cccc(OC(=O)c3ccc([N+](=O)[O-])cc3)c2)c1

Next section.
nr | VDR inh | mol
61 | ? | CC/C(=C(/CC)c1ccc(O)cc1)c1ccc(O)cc1
62 | 1% | CCOC(=O)Cc1cc(C)[nH]c1C(=O)OCC
63 | 10% | CCn1cc(S(=O)(=O)c2cccc(Cl)c2)c(=O)c2cc(F)c(N3CCC(C)CC3)cc21
64 | -17% | CCCOc1ccc(C(=O)c2ccccc2C(=O)OC2CCOC2=O)cc1OCCC (configuration not stated)
65 | 7% | Cc1cccc(NC(=O)c2cc(S(=O)(=O)N3CCc4ccccc43)cn2C)c1
66 | 9% | Cc1c(CCC(C)C)c(=O)n2c([nH]c3ccccc32)c1C#N
67 | -9% | Cc1ccc(S(=O)(=O)N2CCOCC2)cc1NC(=O)CSc1ncccn1
68 | -18% | Cc1cc(C)n2nc(C(=O)Nc3ccc(S(=O)(=O)N(C)C)cc3)nc2n1
69 | 0% | NC(=O)CSc1nnc(-c2ccc(O)cc2)n1Cc1ccco1
70 | 1% | COc1ccc(OC)c(-n2c(C)nc3cc(C(=O)O)ccc32)c1
71 | -17% | Cc1c(C(=O)OC2CCCCC2)[nH]c2c1C(=O)CC(c1ccc(C(C)(C)C)cc1)C2 (configuration not stated)
72 | -2% | C[n+]1ccccc1/C=C1\Sc2ccccc2N1CCO
73 | -4% | COc1ccc(S(=O)(=O)Nc2ccc(S(=O)(=O)Nc3nccs3)cc2)cc1
74 | -3% | CN(CC(=O)Nc1cccc(F)c1)C(=O)c1ccccc1Sc1ccccc1C#N
75 | 8% | Cc1ccc(Cn2cc(S(=O)(=O)c3ccc(C)cc3)c(=O)c3cc(F)c(N4CCCC4)cc32)cc1
76 | -18% | CC(C)=CC(=O)Nc1nnc(-c2cccnc2)s1
77 | -14%&-11% | Cc1cc(Br)ccc1NC(=O)CCS(=O)(=O)c1cccc2nonc12
78 | -11% | O=c1c2c3c(sc2nc2n1CCC2)CCCCC3
79 | 9% | CCCN1CCN(c2cc3c(cc2F)c(=O)c(S(=O)(=O)c2ccc(Cl)cc2)cn3C)CC1
80 | 5% | CCc1ccc(NC(=O)CC2C(=O)N(c3ccc(Cl)cc3)C(=O)N2Cc2cccs2)cc1 (configuration not stated)
81 | -5% | O=C(Nc1cccc([N+](=O)[O-])c1)C1COc2ccccc2O1 (configuration not stated)
82 | 3% | Oc1ccc2ccc3cccc[n+]3c2c1
83 | -6% | COc1cc(OC)c(C2=NOC(C(=O)N3CCc4ccccc4C3)C2)cc1Cl (configuration not stated)
84 | 4% | COC(=O)Cn1c(=O)c2c(n(Cc3ccccc3)c1=O)N/C(=C/c1ccc(OC)cc1)C2=O
85 | 9% | COc1cccc(C2C3=C(CC(C)(C)CC3=O)Nc3cc(OC)c(OC)cc32)c1 (configuration not stated)
86 | 4% | COc1ccc(NC(=O)C=C(C)C)cc1Cl
87 | 1% | Cc1ccc(C2C3=C(CC(C)(C)CC3=O)Nc3[nH]c(=S)[nH]c(=O)c32)cc1 (configuration not stated)
88 | -15% | CCc1ccc(N(CC)C(=O)c2ccc3c(Cl)c4c(nc3c2)CCC4)cc1
89 | -30% | O=c1c(-c2cc(F)cc(F)c2)nc2cnc(Oc3ccccc3)nc2n1C1CC1
90 | 3% | COc1cccc(C(=O)N2CCN(C(=O)Cc3ccccc3)CC2)c1
91 | 0% | CCCOc1c(Br)cc(C2C3=C(CCCC3=O)N(C)C3=C2C(=O)CCC3)cc1OC
92 | -5% | COc1ccccc1NC(=O)Cn1c([N+](=O)[O-])cnc1C
93 | -3% | COc1ccc(C(=O)NCCc2ccccc2)cc1[N+](=O)[O-]
94 | -1% | CCOC(=O)CSc1nc(NCc2ccco2)c2ccccc2n1
95 | -12% | COc1ccc(S(=O)(=O)NCCC(=O)N2CCCC2)cc1N(C)S(C)(=O)=O
96 | -5% | Cc1nc(C)c(-c2ccn(C(=O)NC(C)C)n2)s1
97 | -15% | O=[N+]([O-])c1cc(/C=N/N2CCN(C3c4ccccc4-c4ccccc43)CC2)ccc1Cl
98 | 15% | Cc1ccc(-n2c(C)cc(C3N=C(N)Nc4nc5ccccc5n43)c2C)c(C)c1 (configuration not stated)
99 | 7% | CCOc1ccc(NC(=O)CN2C(=O)C(c3ccccc3)=NC23CCCCCC3)cc1
100 | 0% | CO/N=C/C(c1ccc(Cl)nc1)S(=O)(=O)c1ccccc1 (configuration not stated)
101 | 20% | Oc1ccc2ccccc2c1/C=N/n1cnnc1
102 | 33%[activator] | COc1ccc(NC2=NCC(Cc3ccc(Br)cc3)S2)cc1 (configuration not stated)
103 | -6% | COc1cccc(-c2sc3ccc(OC)cc3c2-c2ccc(OCCN3CCOCC3)cc2)c1
104 | 26% | COc1ccc(Br)cc1CN(C)CC(=O)NCCc1ccc(S(N)(=O)=O)cc1
105 | 14% | CN(Cc1cccs1)C(=O)c1cc(S(=O)(=O)N2CCOCC2)ccc1F
106 | 6% | CCCCOc1cccc(C(=O)N(Cc2ccc(Cl)cc2)C2CCS(=O)(=O)C2)c1 (configuration not stated)
107 | -2% | CCOc1ccc(C(O)(CCC(C)C)C(CN2CCOCC2)c2ccccc2)cc1 (configuration not stated)
108 | -10% | O=C(Nc1ccccc1C(=O)NCCCN1CCOCC1)c1ccccc1
109 | -8% | COc1ccc(C2SCCN2S(=O)(=O)c2ccc(F)cc2)cc1OC (configuration not stated)
110 | 3% | O=C(NCCCO)/C(=C\c1cn(-c2ccccc2)nc1-c1cccnc1)NC(=O)c1ccccc1
111 | 7% | O=C(NC1CCN(S(=O)(=O)c2ccc(Cl)cc2)CC1)C1CCCCC1
112 | -12% | COc1ccc(C)cc1NC(=O)CO/N=C(\N)CC(=O)Nc1ccccc1OC
113 | -8% | COc1cc2c(cc1OC)C1(Nc3c-2c(Cc2ccccc2)nn3-c2ccccc2)C(=O)Nc2ccccc21 (configuration not stated)
114 | 7% | Cc1onc(-c2ccccc2Cl)c1C(=O)NCc1ccc(F)cc1
115 | 7% | Cc1c(C(=O)Nc2cc(F)ccc2F)sc2nc(-c3ccc(F)cc3)cn12
116 | 23% | CC(C)C(c1nnnn1Cc1ccco1)N1CCC(C(N)=O)CC1 (configuration not stated)
117 | -5% | Cc1c(NC(=O)Oc2ccccc2)sc(=S)n1C

Filtered by structure, those above with a COOH group.
nr | VDR inh | mol
14 | -7% | CC(N)(COP(=O)(O)O)C(=O)O (configuration not stated)
44 | 7% | O=C1CC(C(=O)Nc2ccc(O)c(C(=O)O)c2)C(c2ccccc2)O1 (configuration not stated)
70 | 1% | COc1ccc(OC)c(-n2c(C)nc3cc(C(=O)O)ccc32)c1
